Screening results as filed in PubChem.
NPYLR7 ag = mosquito NPYLR7 agonism; HEK293T NPYLR7/Galpha15, GCaMP6s calcium fluorescence; activation, % at 10 µM; actives 0.15% (n = 270,000); in the data active means activation above about 40%;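 further: 0% = vehicle and 100% = reference agonist at the receptor; some compounds past the cut are filed as inactive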
NPYLR7 ag max-min = recorded beside NPYLR7 ag, whose call it bears; activation, %; measured here: Max-Min RFU normalised activation; some inactives read as strong as hits;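 span of the calcium signal over five minutes; 0% = vehicle and 100% = native peptide agonist; compound fluorescence can raise it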
Starred values were filed as active, the others as inactive; & = joins results of further samples. Some of the compounds tested, so the mix of outcomes need not match the whole.

For CCCc1n[nH]c(=O)n1[C@@H](CC)c1ccccc1 the results were NPYLR7 ag 8 and NPYLR7 ag max-min -2.
Screening O=C(O)c1coc(CN(CCN2CCOCC2)Cc2ccccc2Cl)n1 returned NPYLR7 ag 9 and NPYLR7 ag max-min 10.
Screening O=C(Cc1ccccc1)Nc1cccc(NC(=O)c2ccnnc2)c1 returned NPYLR7 ag 8 and NPYLR7 ag max-min 5.
`CCCCCCC(=O)Nc1c(-c2ccc(C)cc2)nc2ccc(C)cn12` gave NPYLR7 ag -1 and NPYLR7 ag max-min -1.
CCOC(=O)Cn1cnc2c(nnn2-c2ccccc2)c1=O was read as NPYLR7 ag 7 and NPYLR7 ag max-min 8.
Cc1ccc(-c2nnc(SCc3ccc(C(N)=O)cc3)n2-c2ccccc2C)cc1 was read as NPYLR7 ag 31 and NPYLR7 ag max-min 27.
CCOC(=O)c1cnn(CCN(C)Cc2ccc(C#N)cc2)c1N was read as NPYLR7 ag 7 and NPYLR7 ag max-min 3.
COc1ccc(-c2cnc3ncnn3c2N2CCCN(C(=O)c3cnn(C)c3Cl)CC2)cc1 was read as NPYLR7 ag -1 and NPYLR7 ag max-min -2.
For Cn1cc(C(=O)Nc2cccc(C(F)(F)F)c2)c2[nH]c(=O)n(-c3ccc(F)cc3)c(=O)c21 the results were NPYLR7 ag 3 and NPYLR7 ag max-min 0.
OCCC1CN(Cc2cc3ccccc3s2)CCN1C1CCCC1 (stereo unspecified) was read as NPYLR7 ag 6&4 and NPYLR7 ag max-min 0&0.
`Cc1ccc(S(=O)(=O)NCc2ccc(NC(=O)NC(C)C)cc2)cc1` gave NPYLR7 ag -2 and NPYLR7 ag max-min -1.
`O=C(Nc1ccc2[nH]cc(CCN3CCN(c4cccc(C(F)(F)F)c4)CC3)c2c1)C(Cl)(Cl)Cl` gave NPYLR7 ag 6 and NPYLR7 ag max-min 9.
Screening COc1cccc(CN2CC(C(=O)N3CCC(OCc4ccccn4)CC3)CCC2=O)c1 (stereo unspecified) returned NPYLR7 ag 2 and NPYLR7 ag max-min -1.
Cc1cccc(Nc2nc(N3CC(C)OC(C)C3)nc(N)c2[N+](=O)[O-])c1 (stereo unspecified) was read as NPYLR7 ag 3 and NPYLR7 ag max-min 1.
Screening Cc1cc(C)cc(-c2nnc(SCc3nnc(-c4ccco4)o3)o2)c1 returned NPYLR7 ag 26 and NPYLR7 ag max-min 24.
Screening COC(=O)C(Cc1ccccc1)NC(=O)c1csc(COC(=O)c2ccccc2)n1 (stereo unspecified) returned NPYLR7 ag 0 and NPYLR7 ag max-min 1.
Screening COC(=O)c1ccccc1NC(=O)N1CCCC(C(=O)c2cccc(OC(C)C)c2)C1 (stereo unspecified) returned NPYLR7 ag 3 and NPYLR7 ag max-min 0.
For CCn1c(SCC(=O)Nc2ccc3c(c2)OCO3)nc2c(-c3ccccc3)c[nH]c2c1=O the results were NPYLR7 ag 0 and NPYLR7 ag max-min 1.
CSc1nc(-c2ccc(F)cc2)nc2c1Cc1c(CO)cnc(C)c1O2 was read as NPYLR7 ag 7 and NPYLR7 ag max-min 6.
`CCCS(=O)(=O)NC1CC(=O)N(CCc2cccc(Cl)c2)C1` (stereo unspecified) gave NPYLR7 ag 12 and NPYLR7 ag max-min 12.

Ordered by SMILES length (falling): 3 of the compounds above.
Screening COC(=O)c1ccccc1NC(=O)N1CCCC(C(=O)c2cccc(OC(C)C)c2)C1 (stereo unspecified) returned NPYLR7 ag 3 and NPYLR7 ag max-min 0.
Screening Cc1cc(C)cc(-c2nnc(SCc3nnc(-c4ccco4)o3)o2)c1 returned NPYLR7 ag 26 and NPYLR7 ag max-min 24.
`CCCS(=O)(=O)NC1CC(=O)N(CCc2cccc(Cl)c2)C1` (stereo unspecified) gave NPYLR7 ag 12 and NPYLR7 ag max-min 12.

(list continues)
CCOC(=O)Cn1cnc2c(nnn2Cc2ccc(Cl)cc2)c1=O was read as NPYLR7 ag 9 and NPYLR7 ag max-min 9.
Screening Cc1[nH]c(=O)[nH]c(=O)c1Cc1nnc(SCc2cccc(C(F)(F)F)c2)o1 returned NPYLR7 ag 2 and NPYLR7 ag max-min 2.
For CC(C)N1CCC(C)(C(=O)Nc2cc(-c3ccccc3)nn2C)C1 (stereo unspecified) the results were NPYLR7 ag -1 and NPYLR7 ag max-min -1.
For CN(CCC(C)(C)O)C(=O)c1cc2ccccc2s1 the results were NPYLR7 ag 3 and NPYLR7 ag max-min 4.
CO/N=C(/C(=O)N[C@@H]1C[C@H]2CC[C@@H]1C2)c1csc(NC=O)n1 was read as NPYLR7 ag -11 and NPYLR7 ag max-min -18.
`Cc1ccc(Oc2ncccc2CNC(=O)CCc2cnn(C)c2)cn1` gave NPYLR7 ag 1 and NPYLR7 ag max-min 0.
`CCC1(CC)NC(=O)NC1=O` gave NPYLR7 ag -2 and NPYLR7 ag max-min -5.
`C=CCN=c1scc(-c2cc(OC)ccc2OC)n1N=C(C)c1ccncc1` gave NPYLR7 ag -5 and NPYLR7 ag max-min -10.
`Cc1cccc(Cn2cnc3c(nnn3Cc3ccc(F)cc3)c2=O)c1` gave NPYLR7 ag -1 and NPYLR7 ag max-min 2.
For CCc1ccc2oc(-c3cccc(NC(=O)c4ccccc4F)c3)nc2c1 the results were NPYLR7 ag -6 and NPYLR7 ag max-min -8.
CCC(=O)Nc1ccc(S(=O)(=O)Nc2cc(-c3ccc(OC)nn3)ccc2C)cc1 was read as NPYLR7 ag 2 and NPYLR7 ag max-min 1.
Screening CCc1nc2ccc(C(=O)NC(C)(C)C)cn2c1N(CCN(C)C)CC1CC1 returned NPYLR7 ag 0 and NPYLR7 ag max-min -8.
For CCCNc1ncnc2c1c(-c1ccccc1)cn2-c1ccccc1 the results were NPYLR7 ag 0 and NPYLR7 ag max-min 0.
CCN1CCN(C(=O)NCc2ccc(CN(CC)CC)cc2)CC1 was read as NPYLR7 ag 2 and NPYLR7 ag max-min 0.
`Cc1c(C(=O)N2CCC(OCc3ccccc3)CC2)oc2c(F)cccc12` gave NPYLR7 ag 9 and NPYLR7 ag max-min 4.
`COC(=O)c1ccc(CNC2CCCc3c2cnn3-c2ccccc2F)cc1` (stereo unspecified) gave NPYLR7 ag 7 and NPYLR7 ag max-min 3.
`Cc1ccc(-c2nc3ccc(C)cn3c2NC(C)(C)CC(C)(C)C)cc1` gave NPYLR7 ag -6 and NPYLR7 ag max-min -3.
For CCC(C(=O)NCc1cccc(C(F)(F)F)c1)n1c(=O)n(-c2ccccc2Cl)c(=O)c2ccccc21 (stereo unspecified) the results were NPYLR7 ag 19 and NPYLR7 ag max-min 19.
`CC(=O)c1c(C)cc(C)c(CN2CC(C(=O)N(C)C)Oc3ccccc32)c1C` (stereo unspecified) gave NPYLR7 ag -5 and NPYLR7 ag max-min -6.
For CCCCCNC(=O)c1cc(-c2ccco2)nc2c1c(C)nn2C1CCS(=O)(=O)C1 (stereo unspecified) the results were NPYLR7 ag 3 and NPYLR7 ag max-min 6.
Screening CCNC(=O)Cc1sc(-c2ccccc2)nc1-c1cccs1 returned NPYLR7 ag 8 and NPYLR7 ag max-min 6.
Screening O=S1(=O)CC2N=C(Nc3ccccc3F)SC2C1 (stereo unspecified) returned NPYLR7 ag -1 and NPYLR7 ag max-min -2.
Screening CN1CC2=C(C1=O)C(c1ccc(F)cc1)NC(=O)N2 (stereo unspecified) returned NPYLR7 ag -2 and NPYLR7 ag max-min -2.
Screening Cn1cnnc1SCC(=O)Nc1ccc2c(c1)OCO2 returned NPYLR7 ag 23 and NPYLR7 ag max-min 8.
CCN1CCCC1CNC(=S)N1CCCSc2ccccc21 (stereo unspecified) was read as NPYLR7 ag 10 and NPYLR7 ag max-min 10.
For CC(C)(C)CC(C)(C)Nc1c(CCc2ccccc2)nc2c(OCc3ccccc3)cccn12 the results were NPYLR7 ag 19 and NPYLR7 ag max-min 15.
`O=C(CCN1C(=O)c2ccccc2C1=O)Nc1ccc(F)cc1` gave NPYLR7 ag -7 and NPYLR7 ag max-min -11.
`CCCNC(=O)N(CCOC)Cc1nccn1Cc1ccc(C(F)(F)F)cc1` gave NPYLR7 ag 18 and NPYLR7 ag max-min 18.
Screening COc1cc2c(cc1OC)/C(=C/CC1(C)C(=O)CCC1=O)CCS2 returned NPYLR7 ag -5 and NPYLR7 ag max-min -7.
For O=C(Nc1nc(OCC(F)(F)F)cnc1-c1ccc(Cl)cc1Cl)c1ccccc1 the results were NPYLR7 ag -2 and NPYLR7 ag max-min -8.
Screening COc1ccc(C)cc1NC(=O)N1CCN(C(c2ccccc2)c2ccc(Cl)cc2)CC1 (stereo unspecified) returned NPYLR7 ag 16 and NPYLR7 ag max-min 3.
Screening CN(C(=O)c1cc(C(=O)N(C)C2CCCCC2)cc([N+](=O)[O-])c1)C1CCCCC1 returned NPYLR7 ag 5 and NPYLR7 ag max-min 9.
Screening CCOc1ccc(OCC(=O)Nc2cc(C(=O)N3CCCCCC3)cn(C)c2=O)cc1 returned NPYLR7 ag -16 and NPYLR7 ag max-min -24.
For CCCCn1c(N)cc(=O)[nH]c1=O the results were NPYLR7 ag 3 and NPYLR7 ag max-min 1.
`CCC1CN(C(=O)CCc2n[nH]c(C)c2C)CCN1C(C)C` (stereo unspecified) gave NPYLR7 ag 13 and NPYLR7 ag max-min 11.
Cc1nc(Cl)cc(N2CCN(C3CCOC3)CC2)n1 (stereo unspecified) was read as NPYLR7 ag 12 and NPYLR7 ag max-min 9.
CCOC(=O)C1CCCN(C(=O)c2coc(CN(Cc3cccc(C(F)(F)F)c3)Cc3ccc(Cl)cc3Cl)n2)C1 (stereo unspecified) was read as NPYLR7 ag 6 and NPYLR7 ag max-min 8.
c1cn2ccnc2c(N2CCOCC2)n1 was read as NPYLR7 ag 4 and NPYLR7 ag max-min 2.
Screening CCCn1cc(CNC(=O)C2CCOC2)cn1 (stereo unspecified) returned NPYLR7 ag 7 and NPYLR7 ag max-min 21.
For Cc1cc(C(=O)Nc2ccc(C(C)C)cc2)c(C)o1 the results were NPYLR7 ag 1 and NPYLR7 ag max-min 1.
Screening c1ccc(Cn2cccc2CNCc2ccc(N3CCCC3)nc2)cc1 returned NPYLR7 ag 3 and NPYLR7 ag max-min 1.
For COc1ccc(Nc2ncccc2C(=O)NCC2COc3ccccc3O2)cc1 (stereo unspecified) the results were NPYLR7 ag -12 and NPYLR7 ag max-min -17.
CC(=O)Nc1c(-c2cc(=O)oc3ccc(Cl)cc23)oc2ccccc12 was read as NPYLR7 ag -4 and NPYLR7 ag max-min -9.
`COc1ccc2c(CC(=O)NC(C)C(C)C)coc2c1` (stereo unspecified) gave NPYLR7 ag 16 and NPYLR7 ag max-min 9.
Cc1ccc(N2C(=O)CSC2c2cccc(NC(=O)C(C)Cl)c2)cc1F (stereo unspecified) was read as NPYLR7 ag -6 and NPYLR7 ag max-min -1.
For Cc1ccc(Oc2ccc(Cl)cc2NCC(=O)NC2CCS(=O)(=O)C2)cc1 (stereo unspecified) the results were NPYLR7 ag 15 and NPYLR7 ag max-min 6.
Screening CCCCCc1ccc(C(=O)N(CC)CC(=O)N2CC(=O)N(c3ccc(Cl)cc3)C2)cc1 returned NPYLR7 ag 16 and NPYLR7 ag max-min 9.
For Cn1c(NCC2(N3CCCCC3)CCCCC2)c(C#N)c(=O)n(C)c1=O the results were NPYLR7 ag 6 and NPYLR7 ag max-min 6.
CCC(=O)Nc1ccc(Nc2ccc(-n3nc(C)cc3C)nn2)cc1 was read as NPYLR7 ag -4 and NPYLR7 ag max-min -6.
Screening CC(C)(C)NC(=O)N1CCC2(CC1)OCCc1c2[nH]c2ccccc12 returned NPYLR7 ag 19 and NPYLR7 ag max-min 18.
`O=S(=O)(Nc1ccc(S(=O)(=O)Nc2ncccn2)cc1)c1ccc(Cl)cc1` gave NPYLR7 ag 1 and NPYLR7 ag max-min -1.
For O=C(NCC1CCCN(C(=O)CN2CCOC2=O)C1)c1ccc(-c2ccccc2)cc1 (stereo unspecified) the results were NPYLR7 ag 15 and NPYLR7 ag max-min 5.
Cc1cc(C)c2cc(C(=O)N(Cc3ccccn3)C3CC3)[nH]c2c1 was read as NPYLR7 ag 7 and NPYLR7 ag max-min 2.
For C=CCc1cccc(C=C2C(=O)NC(=S)NC2=O)c1O the results were NPYLR7 ag -3 and NPYLR7 ag max-min -2.
`CCOC(=O)c1ccc2c(c1)nc(SCc1ccccc1C#N)n2Cc1ccccn1` gave NPYLR7 ag -5 and NPYLR7 ag max-min -10.
For Fc1cc(Br)ccc1N=Cc1ccccn1 the results were NPYLR7 ag 5 and NPYLR7 ag max-min 5.
Screening Cc1ccccc1S(=O)(=O)Nc1nc2nc3ccccc3n2cc1C#N returned NPYLR7 ag -8 and NPYLR7 ag max-min -9.
`CCOC(=O)c1c(NC(=O)Cn2nc([N+](=O)[O-])c(Br)c2C)sc(C)c1C` gave NPYLR7 ag -1 and NPYLR7 ag max-min -5.

Compounds above that contain an NH in an aromatic ring, in the order listed:
For CCCc1n[nH]c(=O)n1[C@@H](CC)c1ccccc1 the results were NPYLR7 ag 8 and NPYLR7 ag max-min -2.
For Cn1cc(C(=O)Nc2cccc(C(F)(F)F)c2)c2[nH]c(=O)n(-c3ccc(F)cc3)c(=O)c21 the results were NPYLR7 ag 3 and NPYLR7 ag max-min 0.
`O=C(Nc1ccc2[nH]cc(CCN3CCN(c4cccc(C(F)(F)F)c4)CC3)c2c1)C(Cl)(Cl)Cl` gave NPYLR7 ag 6 and NPYLR7 ag max-min 9.
For CCn1c(SCC(=O)Nc2ccc3c(c2)OCO3)nc2c(-c3ccccc3)c[nH]c2c1=O the results were NPYLR7 ag 0 and NPYLR7 ag max-min 1.
Screening Cc1[nH]c(=O)[nH]c(=O)c1Cc1nnc(SCc2cccc(C(F)(F)F)c2)o1 returned NPYLR7 ag 2 and NPYLR7 ag max-min 2.
For CCCCn1c(N)cc(=O)[nH]c1=O the results were NPYLR7 ag 3 and NPYLR7 ag max-min 1.
`CCC1CN(C(=O)CCc2n[nH]c(C)c2C)CCN1C(C)C` (stereo unspecified) gave NPYLR7 ag 13 and NPYLR7 ag max-min 11.
Screening CC(C)(C)NC(=O)N1CCC2(CC1)OCCc1c2[nH]c2ccccc12 returned NPYLR7 ag 19 and NPYLR7 ag max-min 18.
Cc1cc(C)c2cc(C(=O)N(Cc3ccccn3)C3CC3)[nH]c2c1 was read as NPYLR7 ag 7 and NPYLR7 ag max-min 2.
